Ecoli rRNA inh: inhibitors of bacterial rRNA selective over humanized ribosomes. E. coli WT GFP vs humanized-ribosome RFP mutants, fluorescence, 24 h; stronger effect = lower value; DMSO median 0, no signal -100. GFP signal change (wild-type ribosome), % (no concentration beside the values). hit rate 1.6% among 350,000;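 active means significant combined selectivity score with lowered wild-type GFP, culture density cut under 30%, mutant RFP and density less affected; inactive means any of these conditions unmet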; further: one replicate is shown; some compounds called inactive have numbers as strong as hits
FGF22 binding: binders of recombinant human FGF22 by thermal shift | Q9HCT0 | SYPRO orange fluorescence; percent of sucrose octasulfate shift, DMSO zero | calls only at 9.99 µM | hit rate 1.5% among 340,000;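 active means melting point raised past a set limit in the mean and every replicate; three in four hits are not shown here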
Target sequence (Q9HCT0 whole entry, looked up): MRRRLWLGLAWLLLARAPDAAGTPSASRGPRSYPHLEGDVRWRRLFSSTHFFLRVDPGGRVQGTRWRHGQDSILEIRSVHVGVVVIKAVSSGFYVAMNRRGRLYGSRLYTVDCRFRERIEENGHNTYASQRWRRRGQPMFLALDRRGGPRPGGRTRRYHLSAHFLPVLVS
MLL AF4-AF9 inh: MLL-AF4/AF9 protein interaction inhibition | P42568 | AlphaScreen, biotin-AF4 peptide binding to FLAG-AF9 | inhibition, % at 10 µM | hit rate 0.47% among 350,000 | AID 651704;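 active means every replicate reaching a set inhibition limit, whatever the replicate mean, cut at about 25% in these data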;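 further: 0% = plate neutral control median and 100% = total signal loss; the record names both 10 and 1 µM as test concentration; the first replicate is given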
Ecoli rRNA inh OD600: second read-out of Ecoli rRNA inh, no call of its own (marks repeat the call); OD600 change, %; measured here: OD600 growth;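 optical density of the mix in the first replicate; 0 = DMSO median and -100 = no signal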
Ecoli rRNA inh RFP: recorded beside Ecoli rRNA inh, whose call it bears; RFP signal change, %; measured here: RFP humanized mutant strains;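 first replicate; 0 = DMSO median and -100 = no signal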
* marks the source's active call; other numbers are inactive results; i = inactive. The list is partial; the hit share may differ from the screen's.

1. CCc1nc2ccc(C(=O)NCCC(C)C)cn2c1N(C)Cc1nccs1
2. CCCNC(=O)C[C@H]1C[C@H]2c3cc(NC(=O)CC4CC4)ccc3O[C@H]2[C@@H](CO)O1
3. C[C@H]1CN([C@@H](C)CO)C(=O)Cc2cc(NC(=O)Nc3ccccc3)ccc2O[C@H]1CN(C)Cc1ccc2c(c1)OCO2
4. COCC(=O)Nc1ccc2c(c1)OC[C@H](C)N(C(=O)Cc1ccccn1)C[C@@H](C)[C@@H](OC)CN(C)C2=O
5. C[C@@H]1CN([C@@H](C)CO)S(=O)(=O)c2ccc(C#Cc3ccc(F)cc3)cc2O[C@@H]1CN(C)S(=O)(=O)c1ccc(F)cc1

screen / no.	1	2	3	4	5
Ecoli rRNA inh RFP	0.2	-0.4	7.9	-0.1	-0.2
FGF22 binding	i	i	i	i	i
MLL AF4-AF9 inh	-2.3	0.2	1.1	-0.6	-2.9
Ecoli rRNA inh OD600	-11.6	9.4	-18.6	0.9	17.1
Ecoli rRNA inh	-5.5	0.8	-1.7	2.5	2.2

Three of the entries above in order of their number in Ecoli rRNA inh OD600, falling.
item | SMILES | Ecoli rRNA inh OD600
5 | C[C@@H]1CN([C@@H](C)CO)S(=O)(=O)c2ccc(C#Cc3ccc(F)cc3)cc2O[C@@H]1CN(C)S(=O)(=O)c1ccc(F)cc1 | 17.1
2 | CCCNC(=O)C[C@H]1C[C@H]2c3cc(NC(=O)CC4CC4)ccc3O[C@H]2[C@@H](CO)O1 | 9.4
3 | C[C@H]1CN([C@@H](C)CO)C(=O)Cc2cc(NC(=O)Nc3ccccc3)ccc2O[C@H]1CN(C)Cc1ccc2c(c1)OCO2 | -18.6

Filtered by structure, those above containing four or more nitrogen atoms.
1. CCc1nc2ccc(C(=O)NCCC(C)C)cn2c1N(C)Cc1nccs1
3. C[C@H]1CN([C@@H](C)CO)C(=O)Cc2cc(NC(=O)Nc3ccccc3)ccc2O[C@H]1CN(C)Cc1ccc2c(c1)OCO2
4. COCC(=O)Nc1ccc2c(c1)OC[C@H](C)N(C(=O)Cc1ccccn1)C[C@@H](C)[C@@H](OC)CN(C)C2=O

screen / no.	1	3	4
Ecoli rRNA inh RFP	0.2	7.9	-0.1
FGF22 binding	i	i	i
MLL AF4-AF9 inh	-2.3	1.1	-0.6
Ecoli rRNA inh OD600	-11.6	-18.6	0.9
Ecoli rRNA inh	-5.5	-1.7	2.5

Continuation:
6. COc1cccc(-c2ccc3c(c2)O[C@H](CN(C)C(=O)C2CC2)[C@@H](C)CN([C@@H](C)CO)S3(=O)=O)c1
7. CO[C@@H]1CN(C)C(=O)c2cc(NC(=O)C3CC3)ccc2OC[C@@H](C)N(Cc2cc(F)ccc2F)C[C@H]1C
8. CCCC#Cc1ccc([C@H]2[C@H](CO)N3CCCCN(CC4CCOCC4)C[C@@H]23)cc1
9. CC(C)(C)n1nnnc1C(c1ccccc1)N1CCN(c2ccccn2)CC1 (configuration not stated)
10. CNc1cncc(-c2cc(OC)c(OC)c(OC)c2)n1
11. COc1cc(CCN=Cc2cccc(OC)c2O)c([N+](=O)[O-])cc1OC
12. C[C@@H]1CN([C@H](C)CO)C(=O)Cc2cc(NS(=O)(=O)c3cccs3)ccc2O[C@H]1CN(C)C(=O)Nc1ccc(C(F)(F)F)cc1

screen / no.	6	7	8	9	10	11	12
Ecoli rRNA inh RFP	0.1	0.4	2.9	6.2	2.4	3.2	-1.3
FGF22 binding	i	i	i	i	i	i	i
MLL AF4-AF9 inh	4.1	0.3	5.9	2.9	15.5	2.4	-1.4
Ecoli rRNA inh OD600	-13.3	6.9	1.2	-9.3	4.1	12.2	-7.2
Ecoli rRNA inh	0.0	2.4	4.5	-11.6	-3.3	0.4	-1.1

Bioassay records: PubChem, Broad Institute
